Assay outcomes as filed in PubChem.
UCH37 DUB inh: blocks the human deubiquitinase UCH37. AID 588478. purified proteasome/UCH37, Ub-AMC cleavage fluorescence. inhibition, % (no concentration beside the values). 330,000 compounds, 0.33% hits;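 active means mean of two replicates above 20%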;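 further: 0% = compound-free wells with enzyme and 100% = wells lacking proteasome; stock transfer was 100 nL into about 20 µL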
Target sequence (Q9Y5K5 whole entry, looked up): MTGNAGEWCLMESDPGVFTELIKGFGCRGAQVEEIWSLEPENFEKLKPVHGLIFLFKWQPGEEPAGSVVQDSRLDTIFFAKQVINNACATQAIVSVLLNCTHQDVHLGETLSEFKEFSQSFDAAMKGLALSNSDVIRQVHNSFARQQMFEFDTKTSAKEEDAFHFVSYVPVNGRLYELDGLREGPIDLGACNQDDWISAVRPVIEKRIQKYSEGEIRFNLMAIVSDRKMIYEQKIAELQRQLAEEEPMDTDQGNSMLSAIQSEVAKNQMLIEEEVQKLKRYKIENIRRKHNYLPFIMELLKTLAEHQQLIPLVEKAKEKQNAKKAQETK
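Material: Human UCH37 enzyme supplied as purified proteasome complex | Schedule: 30 min preincubation with enzyme, 25 min cleavage at room temperature | Detection: AMC fluorescence 355/460 nm | Measure: % inhibition of Ub-AMC cleavage fluorescence | Controls: Wells without proteasome as full block, compound-free enzyme plus substrate as uninhibited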
HNF4A DNA FP: change in binding of human HNF4 alpha to DNA; P41235; HNF4a-FITC DNA binding, fluorescence polarization, 1 h; activity change, % at 10 µM; 360,000 compounds, 0.3% hits; in the data active means activity change above about 30%, passing the limit was not always enough;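 further: controls were the assay level and a saturating level of protein; the project sought stronger binding though the title names inhibitors; some compounds called inactive have numbers as strong as hits; positive values seem to mean higher polarization but the record does not say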
Target sequence (P41235 whole entry, looked up): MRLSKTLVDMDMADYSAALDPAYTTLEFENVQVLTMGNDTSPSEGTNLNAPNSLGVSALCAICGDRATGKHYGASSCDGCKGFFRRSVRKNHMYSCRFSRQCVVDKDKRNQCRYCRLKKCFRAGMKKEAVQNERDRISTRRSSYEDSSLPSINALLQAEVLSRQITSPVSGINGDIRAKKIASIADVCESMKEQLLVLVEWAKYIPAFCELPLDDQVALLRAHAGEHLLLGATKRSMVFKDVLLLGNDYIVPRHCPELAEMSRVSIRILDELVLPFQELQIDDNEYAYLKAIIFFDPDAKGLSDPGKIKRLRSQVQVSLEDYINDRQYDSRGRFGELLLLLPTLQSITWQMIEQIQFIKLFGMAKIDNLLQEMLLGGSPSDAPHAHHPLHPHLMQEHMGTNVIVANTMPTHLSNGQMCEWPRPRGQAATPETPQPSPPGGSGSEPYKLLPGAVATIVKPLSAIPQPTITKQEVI
Vif A3G: inhibitors of Vif binding to APOBEC3G peptide, primary screen, biochemical, TR-FRET, GST-Vif 1-94, biotin-A3G peptide, dose response retest (AID 1117319); TR-FRET GST-Vif / biotin-A3G peptide binding; higher % means a stronger effect; test concentration not given here; strong numbers were not always called active; one-dose inhibition, %; IC50 in µM for titrated hits; 260,000 compounds, 0.57% hits;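 active means above the screen mean plus three standard deviations and confirmed in dose response; inconclusive means results disagree or hit not tested in dose response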;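 further: Vif residues 1-94 fused to GST binding biotinylated APOBEC3G peptide 110-148; 0% = full assay without inhibitor and 100% = GST in place of GST-Vif; retest series ran down from 100 µM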
Ecoli growth: E. coli growth inhibition; Escherichia coli growth, OD600, 23 h; stronger effect = lower value; OD600 absorbance (test concentration not listed); 330,000 compounds, 0.21% hits; AID 1053175;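 active means OD600 absorbance below the run mean of sample wells minus 3.6 SD, in any replicate, cut at about 0.56 in these data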;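 further: stock transfer was 300 nL into about 60 µL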
FGF22 binding: binders of recombinant human FGF22 by thermal shift. Q9HCT0. SYPRO orange fluorescence; percent of sucrose octasulfate shift, DMSO zero. calls only at 9.99 µM. 340,000 compounds, 1.5% hits. AID 651658;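 active means melting point raised past a set limit in the mean and every replicate; inconclusive means no clear call; three in four hits are not shown here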
Target sequence (Q9HCT0 whole entry, looked up): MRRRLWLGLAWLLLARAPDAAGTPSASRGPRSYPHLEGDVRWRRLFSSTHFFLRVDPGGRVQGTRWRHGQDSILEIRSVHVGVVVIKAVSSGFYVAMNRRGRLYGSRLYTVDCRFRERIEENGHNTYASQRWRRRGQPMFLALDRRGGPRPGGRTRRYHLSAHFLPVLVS
AF4-AF9 inh: MLL-AF4/AF9 protein interaction inhibition | AlphaScreen, biotin-AF4 peptide binding to FLAG-AF9 | inhibition, % at 10 µM | 350,000 compounds, 0.47% hits | AID 651704;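 active means every replicate reaching a set inhibition limit, whatever the replicate mean, cut at about 25% in these data; inconclusive means mean inhibition reaches that limit but some replicates miss it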;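 further: 0% = plate neutral control median and 100% = total signal loss; the record names both 10 and 1 µM as test concentration; the first replicate is given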
RanGTP-Impb inh: inhibitors of RanGTP-importin-beta interaction, primary screen, biochemical, FRET, CFP-Ran, YFP-importin-beta, homogeneous; cell-free CFP-Ran/YFP-importin-beta FRET ratio; inhibition, % (test concentration not listed); 300,000 compounds, 1.1% hits;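 active means most replicates above 15%; inconclusive means exactly half above 15%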;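 further: 0% = DMSO wells and 100% = Ran loaded with GDP instead of GTP; wells of about 40 µL received 100 nL stock; the first replicate is given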
Numbers without * were called inactive; i = inactive; ? = inconclusive; / = not tested or not shown. This is a subset. The share of hits here may be higher or lower than overall.

SMILES	UCH37 DUB inh	HNF4A DNA FP	Vif A3G	Ecoli growth	FGF22 binding	AF4-AF9 inh	RanGTP-Impb inh
COc1ccc2cc(C#N)c(SCC(=O)N3CCCC3)nc2c1	-24.5	0.5	-15.3%	0.729	/	/	1.2
CC(OC(=O)c1cccc(NS(C)(=O)=O)c1)C(=O)Nc1ccc(N2CCOCC2)cc1 (stereo not given)	-0.1	4.8	20.2%	0.714	/	/	-0.6
Cc1cccc(OCc2n(CC(=O)OC3CC(C)CCC3C(C)C)c3ccccc3[n+]2C)c1 (stereo not given)	6.7	-2.2	-1.6%	/	/	/	4.5
CCOCCOC(=O)COc1ccc2c(=O)c(Oc3ccc(OC)cc3)coc2c1	-0.7	-6.6	-4.1%	0.707	i	2.2	5.3
COC(=O)C1=C(C)N(c2ccc(C(=O)OC)cc2)C(=O)C1	0.7	-2.0	0.8%	0.701	/	/	-0.5
CNC(=S)N/N=C/c1ccc(-c2ccc(C(=O)O)cc2)o1	/	-4.0	19.4%	/	i	0.7	1.0
O=C(c1cnn(-c2nc3ccccc3s2)c1)c1ccccc1O	2.8	-4.0	10.4%	0.718	/	/	-2.1
COc1ccc(C[C@H]2CN3C(=NC[C@@H]3Cc3ccc(O)cc3)N2CCNC(=O)c2ccc(C)c(Br)c2)cc1	-0.5	0.0	-2.9%	/	i	29.1*	2.5
CC(=O)NC(CC(=O)NNC(=O)COc1c(C)cccc1C)c1ccccc1 (stereo not given)	0.2	1.0	-0.8%	0.716	i	-0.2	/
Cc1cccc(NC(=S)NCCc2c[nH]c3ccccc23)c1	1.2	1.6	-6.6%	0.679	/	/	-1.0
CN(C)c1ccc(-c2ccnc3c2CC(C)(C(=O)NCc2ccco2)O3)cc1 (stereo not given)	/	-2.3	/	/	i	0.9	/
CC1(C)CC(=O)C(C=Nc2ccncc2)=C(O)C1	0.1	-1.7	/	0.658	/	/	4.0
COc1ccc(NC(=O)c2cccc(Cn3cc(Br)cn3)c2)cn1	4.4	3.7	?	0.658	/	/	6.7
CCc1nnc(NC(=O)CSc2nnc(COc3ccc(C)cc3)n2-c2ccccc2)s1	1.8	-1.7	-2.5%	0.665	/	/	-2.6
COc1cc(CNc2nccn3ccnc23)cc(OC)c1	/	2.9	/	/	i	-0.1	/
COc1ccccc1NC(=O)NCc1ccc2c(c1)OCO2	1.5	/	-10.5%	0.678	/	/	-3.8
Cc1cc(S(=O)(=O)Nc2c(C)nn(C)c2C)c(Cl)cc1Cl	2.1	1.8	/	0.651	i	1.2	1.6
O=S(=O)(c1cnc(Cl)c(Cl)c1)N1CCN(c2ncccn2)CC1	2.6	-1.5	-12.2%	0.7	i	-2.4	2.9
N#CC1=C(N)NC(SCc2ccccc2)=C(C#N)C12CCCCC2	5.5	-2.3	-1.9%	0.679	/	/	-1.0
CCOC(=O)[C@@H]1[C@H]2COc3ccc(Br)cc3[C@@H]2N2C(=O)N(c3ccc(C)cc3)C(=O)[C@]12C	4.4	0.0	/	/	i	4.8	1.4
Cc1cccc(CSc2nc3ccccc3c(=O)n2C)c1	/	0.4	/	/	i	-1.4	/
COC(=O)c1ccccc1NC(=O)NC1CCCC1	-3.8	-0.8	-1.1%	0.697	i	-1.5	?
COc1ccc(CN2C(=O)c3cccnc3C2=O)cc1S(=O)(=O)NCc1ccccc1	1.2	-0.2	/	0.667	i	-1.3	5.2
CCC1(CC)C(=O)Nc2ccccc21	0.8	0.7	/	0.704	i	-10.3	3.5
O=C1C(=C2CCc3ccccc32)Cc2ccccc21	2.8	0.2	/	0.68	i	0.9	/
SMILES	UCH37 DUB inh	HNF4A DNA FP	Vif A3G	Ecoli growth	FGF22 binding	AF4-AF9 inh	RanGTP-Impb inh
Cc1c(C(N)=O)c(N)c(C(=O)c2ccccc2)n1-c1ccccc1	8.1	-3.4	6.0%	0.713	/	/	6.1
COc1ccc(N2CCN(C(=O)Nc3ccccc3Cl)CC2)cc1	1.9	-7.0	/	0.645	i	-1.4	4.6
CCC(C)c1ccc(S(=O)(=O)N2CCN(C(C)CC(=O)O)CC2)cc1 (stereo not given)	5.0	3.2	/	0.668	i	-4.0	0.9
CCCc1cc(=O)oc2c(CNc3ccc(OCC)cc3)c(O)ccc12	-186.5	-3.1	-10.1%	0.664	i	-1.6	3.7
CCN1CCN(C(=O)CS(=O)(=O)Cc2nc(-c3cccc(OC)c3)oc2C)CC1	-0.7	1.0	1.2%	0.656	i	1.4	-2.4
COc1cccc(-c2nc(C#N)c(N3CCN(C(=O)c4ccco4)CC3)o2)c1	-157.3	-4.1	/	0.704	i	-1.7	-4.1
N#Cc1ccc(C(=O)Nc2ccc(N3CCN(C(=O)c4ccco4)CC3)cc2)c(F)c1	4.0	-1.1	-2.0%	0.67	/	/	2.9
COCCNC(=O)CSc1nnc(NC(=O)C2CC(=O)N(c3ccccc3OC)C2)s1 (stereo not given)	-2.1	2.3	/	0.71	i	-1.4	1.1
CC1(C)Cc2nc3sc(C(N)=O)c(N)c3cc2CO1	1.8	3.6	-8.2%	0.695	/	-2.4	9.4
CCC(Sc1nc(N)cc(=O)[nH]1)C(=O)Nc1cc(C)on1 (stereo not given)	0.4	0.1	13.2%	0.674	i	-1.5	-5.8
COc1ccccc1N1CCN(C2CCCN(Cc3c(F)cccc3F)C2)CC1 (stereo not given)	5.5	0.6	/	0.698	i	2.3	7.4
O=[N+]([O-])c1ccc(N2CCCCC2)cc1NCCOc1ccccc1	3.3	1.3	/	0.715	/	/	5.5
O=C1COc2ccc(C(=O)CSc3nnnn3-c3ccccc3)cc2N1	1.3	2.7	9.2%	0.666	/	/	4.5
COc1ccc(NC(=O)COc2cccc(-n3cnnn3)c2)cc1	0.9	0.9	/	0.657	i	-0.1	-2.4
O=C(NC(Cc1ccc(O)cc1)C(=O)O)/C(=C/c1ccccc1)NC(=O)c1ccccc1 (stereo not given)	5.0	-1.4	/	0.695	i	0.3	2.9
Cc1cc(C(=O)CSc2n[nH]c(N)n2)c(C)n1-c1cccc(F)c1	3.5	-3.1	-6.2%	0.663	i	-1.3	1.4
COc1ccc(CCNC(=O)c2nn(C)c3c2CS(=O)(=O)c2ccccc2-3)cc1OC	3.2	-1.8	/	0.708	/	/	2.8
Cc1ccc(S(=O)(=O)NC(=O)NC2=NC(C)(C)N(c3ccc(Cl)c(Cl)c3)C(N)=N2)cc1	/	1.7	/	/	i	1.7	/
CC(=O)c1cnc2n(c1=O)CCS2	3.8	-3.6	-2.5%	0.673	i	-1.5	1.6
COc1ccccc1C(=O)NC(=O)COC(=O)Cn1cnc2c1c(=O)n(C)c(=O)n2C	0.4	-0.4	3.5%	0.657	i	0.4	1.5
COc1ccccc1C1CC(c2ccco2)=NN1c1ccccc1 (stereo not given)	i	4.9	/	0.689	i	-0.3	-1.9
Oc1c(Br)cc(/C=N/n2c(-c3ccccc3)n[nH]c2=S)cc1Br	/	-6.2	-5.3%	/	i	-5.4	-0.4
CCN1CCc2c(OCC(=O)N3CCCc4ccccc43)cccc2C1=O	5.4	-0.3	?	0.725	i	-0.6	7.6
CCCCn1nnnc1SCC(=O)c1ccc(C)c(C)c1	-1.2	-1.1	?	0.693	/	/	3.8
COCCC(=O)N1CCC(Oc2ccc(C(=O)N(C)C(C)c3ccon3)cc2)CC1 (stereo not given)	0.8	3.3	/	0.673	i	2.3	1.7
SMILES	UCH37 DUB inh	HNF4A DNA FP	Vif A3G	Ecoli growth	FGF22 binding	AF4-AF9 inh	RanGTP-Impb inh
CN1C(=O)C(C)(C)c2cc(S(=O)(=O)NCc3ccc(C(=O)NCc4ccco4)cc3)ccc21	5.6	-0.6	/	0.692	i	6.5	?
Cc1ccc2cc(C=O)c(N(C)C)nc2c1	-35.0	-1.7	/	0.634	/	/	-0.3
CC(=O)c1ccc(NC(=O)CSc2ccc(-c3sc(C)nc3C)nn2)cc1	3.6	8.0	/	0.655	i	0.5	4.9
O=C(NC1=NCCS1)c1ccccc1F	2.0	-0.7	/	0.657	i	-2.8	0.7
COc1cccc(-c2cnc3c(NC=O)cc(-c4cc(OC)c(OC)c(OC)c4)cn23)c1	/	7.2	/	/	i	-0.5	/
COCCNC(=O)C(c1ccc(C)cc1)N(C(=O)C(=O)NC1CCCC1)c1ccc2c(c1)OCCO2 (stereo not given)	1.5	-2.5	9.7%	0.683	i	-0.3	/
Cc1cc(C)nc(NC2=NCC(=O)N2c2ccccc2Br)n1	9.0	-2.1	6.2%	0.718	i	-3.9	?
COc1cc(N)c(Cl)cc1C(=O)OCC(=O)c1ccc2c(c1)NC(=O)CO2	1.5	3.0	-7.0%	0.697	i	-1.8	?
Cc1cn([C@H]2C[C@H](O)[C@@H](/C=C/C(=O)NCCc3ccc4c(c3)OCO4)O2)c(=O)[nH]c1=O	/	-3.8	/	/	i	-0.9	/
Cn1c(NC(=O)c2ccc(Cl)cc2Cl)cc(=O)n(C)c1=O	-1.4	4.7	-0.1%	0.686	i	-1.2	-2.1
CC(=O)c1ccc(NC(=O)C(C)Sc2nnc(-c3ccncc3)n2C2CC2)cc1 (stereo not given)	4.0	0.5	2.5%	0.727	i	-1.9	/
CSc1nc2c(c(C(F)(F)F)n1)CC(C)CC2 (stereo not given)	6.3	0.5	-5.8%	0.709	/	/	0.9
CNc1oc(/C=C/c2cccc(OC)c2)nc1C#N	i	4.7	/	0.654	/	/	2.6
O=c1oc2ccccc2cc1-c1nnc(NCc2ccco2)s1	-44.4	-0.7	7.5%	0.703	/	/	-13.3
O=C(Nc1ccc(OC(F)(F)F)cc1)Nc1cccc([N+](=O)[O-])c1	31.1*	-2.3	?	0.395*	/	/	-1.6
c1ccc2c(c1)Cn1nc(Cc3nc4c(s3)CCCC4)nc1-2	-1.7	-1.6	17.2%	0.724	/	/	-1.4
Cc1occc1C(=O)NNC(=O)C(c1ccccc1)c1ccccc1	2.8	2.8	2.7%	0.717	/	/	0.5
COc1ccc(CC(=O)Nc2ccc(S(=O)(=O)Nc3cc(C)on3)cc2)cc1	7.4	2.5	13.7%	0.737	/	/	-3.1
CC1=C2CCCC[C@@]23C2C(=O)N(C)C(=O)[C@@H]2ON3OC1 (stereo not given in full)	/	-0.2	/	/	i	0.1	/
Cc1ccccc1NC(=O)COC(=O)Cc1cccc(C(F)(F)F)c1	5.8	-0.9	11.6%	0.71	/	/	-1.3
Cc1ccc2nc(-c3ccc(Br)cc3)cn2c1	-2.4	0.9	/	0.706	i	1.8	-1.7
CCCCNCCS(=O)(=O)NCc1ccccc1OC	/	-0.5	/	/	i	-6.1	/
Cc1c(Br)c(C(F)(F)F)nn1CC(=O)NCc1ccccc1	2.2	-0.5	-2.1%	0.677	/	/	-2.0
Oc1ccc(Br)cc1-c1nc2cnccn2c1NC1CCCCC1	-26.9	0.4	0.7%	0.659	i	8.9	1.4
Cc1cc(C(=O)OCC(=O)Nc2cc(Cl)ccc2C)c(C)o1	-0.3	1.6	-0.1%	0.732	i	-0.2	/
O=C(CCCN1C(=O)/C(=C/c2cccs2)SC1=S)Nc1cccc(C(=O)O)c1	6.2	-5.6	/	0.638	i	-1.0	1.5
CCCOc1ccc(CCC(=O)O)cc1	1.5	1.2	/	0.689	i	-1.0	0.5
CCN(CC)CCn1c2c(c(SCC(=O)Nc3nc(C)cs3)nc1=O)CCC2	6.8	-0.9	1.2%	0.665	i	0.9	-1.3

Entries of single compounds as entered above. Order of screens: UCH37 DUB inh, HNF4A DNA FP, Vif A3G, Ecoli growth, FGF22 binding, AF4-AF9 inh, RanGTP-Impb inh
CCN(CC)CCn1c2c(c(SCC(=O)Nc3nc(C)cs3)nc1=O)CCC2 is entered as 6.8, -0.9, 1.2%, 0.665, i, 0.9, -1.3
CSc1nc2c(c(C(F)(F)F)n1)CC(C)CC2 (stereo not given) is entered as 6.3, 0.5, -5.8%, 0.709, /, /, 0.9
O=C(NC1=NCCS1)c1ccccc1F is entered as 2.0, -0.7, /, 0.657, i, -2.8, 0.7
